# Compound activity deposited in PubChem by Broad Institute.
# Shh pathway inh: Sonic Hedgehog pathway inhibition; Shh-LIGHT2 Gli-luciferase reporter, 30 h; inhibition, % (no concentration beside the values); actives 2.1% (n = 22,000); AID 2313;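 active = replicate mean of 65% or more; inconclusive = mean lower but half the replicates past it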;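 note: pathway switched on by Shh-conditioned medium diluted 1 in 25 in low serum; 100 nL library stock added to about 40 µL; 0% = median of neutral wells and 100% = positive control level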
# PD-1 reversal: reversal of PD-1 mediated T-cell inhibition. primary human CD4 T cells, PD-L1 beads, CellTiter-Glo 96 h. 29,000 tested, under 10 active. activation, % (test concentration not listed);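 active = replicate mean of 50% or more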;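 note: 0% = median vehicle wells and 100% = positive control; 100 nL library stock added to about 50 µL; numbers are from one replicate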
# MITF inh: inhibitors of MITF. TRPM1 promoter luciferase, luminescence, 24 h. inhibition, % (concentration not given with the values). actives 0.28% (n = 37,000). AID 2240;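 active = most replicates at 85% or more, or half of them and the mean; inconclusive = half reach 85% but not the mean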;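 note: human melanocyte line stably carrying TRPM1 promoter luciferase reporter; 0% = vehicle wells and 100% = a positive control; the first replicate is given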
# YB-1 expression: YB-1 expression inhibition | U2OS, qRT-PCR YB-1 vs CDIP delta delta Cp, 16 h; stronger effect = higher value; zero = DMSO, each unit about twofold | delta delta Cp (YB-1 minus CDIP) (concentration not given with the values) | actives 0.37% (n = 30,000) | AID 434959;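 active = delta delta Cp rounded down to an integer at or above 3, about 3 SD of DMSO wells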;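 note: higher means less YB-1 transcript or more CDIP transcript relative to DMSO; stock transfer was 100 nL into about 100 µL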
# An asterisk follows results filed as active; ? = inconclusive; . = no result given. An excerpt, so the mix of outcomes need not match the whole.
# A first look, 2 compounds:
compound	PD-1 reversal	YB-1 expression	Shh pathway inh	MITF inh
C[C@H](CO)N1C[C@H](C)[C@H](CN(C)Cc2ccc(C(=O)Nc3ccccc3N)cc2)Oc2c(NS(=O)(=O)c3cn(C)cn3)cccc2C1=O	0.0	0.0639	.	-3.7
Cc1noc(C)c1S(=O)(=O)Nc1ccc2c(c1)CC(=O)N([C@@H](C)CO)C[C@H](C)[C@@H](CN(C)C(=O)NC1CCCCC1)O2	.	0.379	-27.1	-11.8

# All compounds of this part, from the first entry:
compound	PD-1 reversal	YB-1 expression	Shh pathway inh	MITF inh
C[C@H](CO)N1C[C@H](C)[C@H](CN(C)Cc2ccc(C(=O)Nc3ccccc3N)cc2)Oc2c(NS(=O)(=O)c3cn(C)cn3)cccc2C1=O	0.0	0.0639	.	-3.7
Cc1noc(C)c1S(=O)(=O)Nc1ccc2c(c1)CC(=O)N([C@@H](C)CO)C[C@H](C)[C@@H](CN(C)C(=O)NC1CCCCC1)O2	.	0.379	-27.1	-11.8
O=C(NC(OCc1ccccc1)(C(F)(F)F)C(F)(F)F)c1ccccc1	0.8	-0.38	21.6	1.0
C[C@H](CO)N1C[C@H](C)[C@@H](CN(C)S(=O)(=O)c2cn(C)cn2)Oc2ccc(NC(=O)Nc3ccc4c(c3)OCO4)cc2C1=O	1.5	0.000107	.	-6.1
Nc1c(O)cccc1C(=O)O	-1.0	-0.163	-8.1	-10.4
Cc1noc(C)c1NC(=O)N(C)C[C@@H]1Oc2ccc(NC(=O)Nc3ccc(F)cc3)cc2C(=O)N([C@@H](C)CO)C[C@@H]1C	.	0.127	-25.2	-4.7
C[C@H](CO)N1C[C@H](C)[C@@H](CN(C)C(=O)Nc2ccc(C(F)(F)F)cc2)Oc2ccc(N(C)C)cc2C1=O	-0.6	-0.0859	-5.8	-4.1
CC1=NN(C(=O)c2ccc(Cl)cc2)C(C)(C)C1	0.8	-0.128	.	-7.2
C[C@H]1CC(O)C23COC(=O)[C@@H]2CCC[C@@H]3[C@@]12C[C@@H](c1ccoc1)OC2=O (stereo partly drawn)	.	0.143	17.7	.
C=C1C2CC[C@@]3(C)[C@H](c4ccoc4)OC(=O)C[C@]13O[C@H]1CC(=O)C(C)(C)C(CC(=O)OC)[C@@]21C (stereo partly drawn)	.	-15.4	11.8	-2.1
COc1ccc(S(=O)(=O)Nc2ccc3c(c2)C(=O)N([C@H](C)CO)C[C@H](C)[C@@H](CN(C)Cc2ccc(Cl)c(Cl)c2)OCCCC[C@@H](C)O3)cc1	.	-0.828	69.3*	?
O=C(CSc1nc2ccc([N+](=O)[O-])cc2[nH]1)Nc1ccc2c(c1)OCCO2	1.7	.	.	-5.2
COc1ccc(S(=O)(=O)N(C)C[C@H]2Oc3ccc(NC(=O)CCC(F)(F)F)cc3C(=O)N([C@H](C)CO)C[C@H]2C)cc1	0.2	0.126	.	-10.1
C[C@@H]1CN([C@H](C)CO)C(=O)Cc2cc(NC(=O)Nc3ccc(F)cc3)ccc2O[C@H]1CN(C)C(=O)NC1CCCCC1	.	0.392	-13.3	12.2
COc1ccc(S(=O)(=O)Nc2ccc3c(c2)C(=O)N([C@@H](C)CO)C[C@@H](C)[C@H](CN(C)Cc2ccncc2)O3)cc1	0.4	-0.0792	-15.7	-7.2
C[C@H]1CN([C@@H](C)CO)C(=O)c2cccc(NC(=O)Nc3ccccc3)c2O[C@H]1CN(C)S(=O)(=O)c1ccccc1	0.6	0.0562	40.9	-11.5
C[C@@H]1CN([C@@H](C)CO)C(=O)c2cc(NC(=O)Nc3ccc4c(c3)OCO4)ccc2O[C@H]1CN(C)C	-0.1	-0.0859	-2.6	1.2
C[C@H]1CN([C@@H](C)CO)C(=O)c2cc(NS(=O)(=O)c3ccc(F)cc3)ccc2O[C@H]1CN(C)S(=O)(=O)c1ccccc1	.	-0.0709	-47.4	-10.9
COc1ccc(NC(=O)Nc2ccc3c(c2)C(=O)N([C@@H](C)CO)C[C@H](C)[C@H](CN(C)Cc2ccc(Cl)c(Cl)c2)O3)cc1	-0.5	-0.42	17.0	22.8
C[C@@H]1CN([C@H](C)CO)C(=O)c2cc(NC(=O)Nc3ccc(F)cc3)ccc2O[C@H]1CN(C)S(=O)(=O)c1ccc(F)cc1	0.0	0.257	6.7	-32.4
COc1ccc(NC(=O)CSc2nnc(-c3ccc(NC(=O)c4ccc(C)cc4)cc3)n2C)cc1Cl	2.3	.	.	11.9
C[C@H](CO)N1C[C@H](C)[C@H](CN(C)S(C)(=O)=O)Oc2ccc(NC(=O)Cc3cn(C)c4ccccc34)cc2C1=O	-1.3	0.166	.	7.2
C[C@@H]1CN([C@H](C)CO)C(=O)c2cccc(NC(=O)Nc3ccc(C(F)(F)F)cc3)c2O[C@@H]1CN(C)S(C)(=O)=O	.	-0.25	-7.3	-3.0
O=C(CSc1nc(-c2ccccc2)cc(C(F)(F)F)n1)N1CCCc2ccccc21	1.1	.	.	13.9
COc1c(NC(=O)N(C)C)csc1Cl	0.8	-0.309	-10.2	-1.2
C[C@@H]1CN([C@H](C)CO)C(=O)c2cc(NC(=O)Cc3cn(C)c4ccccc34)ccc2O[C@H]1CN(C)S(=O)(=O)c1ccc(F)cc1	-1.2	-0.125	13.5	14.0
COc1ccc(S(=O)(=O)N(C)C[C@H]2OCCCC[C@@H](C)Oc3ccc(NC(=O)Nc4ccc(C(F)(F)F)cc4)cc3C(=O)N([C@H](C)CO)C[C@@H]2C)cc1	0.2	-0.156	13.5	3.5
COc1ccc(NC(=O)Nc2ccc3c(c2)C(=O)N([C@H](C)CO)C[C@H](C)[C@@H](CN(C)C(=O)Nc2c(C)noc2C)O3)cc1	1.7	-0.123	1.6	-0.6
Oc1ccc(CCCCC(CCc2ccc(O)cc2)O[C@@H]2OC[C@@H](O)[C@H](O)[C@H]2O)cc1 (stereo partly drawn)	.	-0.623	14.1	.
OC1c2ccccc2-c2c3c(cc4c2C1NCC4)OCO3 (stereo not drawn)	3.2	-0.739	9.1	27.9
CC(=O)Nc1ccc(OCC(O)Cn2nc(C)nc2C)cc1 (stereo not drawn)	-0.1	.	.	-1.0
CCOC(=O)/C(=C\Nc1ccc(F)c(Cl)c1)S(=O)(=O)c1ccc(Cl)cc1	1.4	-1.54	.	-1.2
CCCC(=O)Oc1ccc2[nH]c(C(=O)c3cc4ccccc4[nH]3)cc2c1	1.3	-0.266	1.6	26.6
O=C(CSc1nc2ccccc2nc1N1CCOCC1)N1CCC2(CC1)OCCO2	1.4	0.119	21.9	-7.2
Cc1ccc2nc(-c3ccc(C)c(NC(=O)COc4ccc([N+](=O)[O-])cc4)c3)oc2c1	1.0	.	.	-61.3
C[C@@H]1CN([C@H](C)CO)C(=O)c2cccc(NC(=O)c3nc4ccccc4s3)c2O[C@@H]1CN(C)S(=O)(=O)c1cn(C)cn1	0.3	-0.46	12.6	-4.9
O=C(Cn1c(=O)oc2ccccc21)Nc1ccc(S(=O)(=O)N2CCCCC2)cc1	-0.7	.	.	2.6
Cc1noc(C)c1NC(=O)N(C)C[C@@H]1Oc2c(NC(=O)Nc3cccc4ccccc34)cccc2C(=O)N([C@H](C)CO)C[C@H]1C	-0.9	0.227	20.4	3.1
C[C@@H]1CN([C@H](C)CO)C(=O)c2cc(NC(=O)CCN3CCOCC3)ccc2O[C@@H]1CN(C)S(C)(=O)=O	1.0	-0.251	-2.7	-11.1
COc1ccc(S(=O)(=O)Nc2cccc3c2O[C@@H](CN(C)Cc2ccc4c(c2)OCO4)[C@@H](C)CN([C@@H](C)CO)C3=O)cc1	-1.0	-0.254	8.7	-14.4
CC1(C)CC(NC(=O)C(=O)NCC2COc3ccccc3O2)CC(C)(C)N1 (stereo not drawn)	1.1	.	.	-18.5
O=C1CSC(c2ccccc2)N1C1CCCCC1 (stereo not drawn)	-0.5	-0.235	2.2	-10.9
Cc1ccc(S(=O)(=O)Nc2cccc3c2O[C@H](CN(C)CC2CCCCC2)[C@H](C)CN([C@H](C)CO)C3=O)cc1	0.2	0.234	13.3	-7.1
COc1ccc(NC(=O)Nc2ccc3c(c2)C(=O)N([C@H](C)CO)C[C@@H](C)[C@H](CN(C)S(=O)(=O)c2cccs2)O3)cc1	0.9	-0.159	.	-23.0
COc1ccc(NC(=O)Nc2ccc3c(c2)C(=O)N([C@H](C)CO)C[C@H](C)[C@H](CN(C)C(=O)Nc2ccc(F)cc2)O3)cc1	-0.7	-0.0559	-11.6	-8.1
Cc1noc(C)c1NC(=O)Nc1cccc2c1O[C@H](CN(C)CC1CC1)[C@@H](C)CN([C@@H](C)CO)C2=O	2.3	-0.123	-20.4	-10.4
CCN(CC)C(=S)Oc1ccc(C#N)cc1	-0.5	-0.381	-23.6	-29.1
CC(C)S(=O)(=O)c1cscc1N1C(=O)c2ccccc2C1=O	0.7	-0.216	-5.1	7.0
COC(=O)CN(c1ccc2c(c1)OCCO2)S(C)(=O)=O	-2.4	.	.	-3.0
COCCNS(=O)(=O)c1ccc(Cl)c(Cl)c1OC	1.2	.	.	4.0
Cc1cccc(OCC(=O)Nc2cccc(-c3nc4ccccc4s3)c2)c1C	0.5	.	.	-1.5
C[C@@H]1CN([C@@H](C)CO)C(=O)c2cc(NS(=O)(=O)c3cn(C)cn3)ccc2O[C@@H]1CN(C)Cc1ccccc1	2.0	-0.735	.	2.5
O=C1c2ccccc2O[C@@H](c2ccc(Cl)cc2)[C@@H]1O	-3.4	0.152	-35.1	-3.0
C[C@H](CO)N1C[C@H](C)[C@H](CN(C)C(=O)Nc2ccc3c(c2)OCO3)Oc2ccc(NS(=O)(=O)c3ccccc3)cc2CC1=O	3.0	-0.228	3.6	10.9
CC1(C)CC[C@@]2(C(=O)O)C(C1)C1=CCC3[C@@]4(C)CC[C@H](O)C(C)(C)C4CC[C@@]3(C)[C@]1(C)C[C@H]2O (stereo partly drawn)	0.3	-0.935	-24.6	9.7
OCc1cc2c([nH]c3ccccc32)c(C(O)CO)n1 (stereo not drawn)	-0.1	-0.26	-6.2	-6.9
Cc1noc(C)c1NC(=O)N(C)C[C@@H]1Oc2ccc(NC(=O)CCC(F)(F)F)cc2C(=O)N([C@@H](C)CO)C[C@H]1C	0.4	0.285	-8.4	-1.8
O=C(O)CCC(=O)Nc1ccc(NC(=O)c2ccccc2)c(Cl)c1	1.8	.	.	-32.6
NC(=O)CN1CCN(CCN2C(=O)c3cccc4cccc(c34)C2=O)CC1	0.6	.	.	10.1
Cc1ccc(S(=O)(=O)CCSc2sc(C#N)c3c2C(=O)CC(C)(C)C3)cc1	-2.3	0.079	66.5*	-17.0

# Following part.
compound	PD-1 reversal	YB-1 expression	Shh pathway inh	MITF inh
C[C@@H]1CCCCO[C@@H](CN(C)S(=O)(=O)c2ccc(F)cc2)[C@@H](C)CN([C@H](C)CO)C(=O)c2cc(NC(=O)C3CCCCC3)ccc2O1	.	0.484	2.2	29.5
COc1ccc(NC(=O)Nc2ccc3c(c2)C(=O)N([C@@H](C)CO)C[C@@H](C)[C@@H](CN(C)C(=O)NC(C)C)O3)cc1	2.0	0.00432	.	-2.3
C[C@H]1CN([C@@H](C)CO)C(=O)c2cc(NC(=O)NC3CCCCC3)ccc2O[C@H]1CN(C)S(C)(=O)=O	-5.2	-1.36	.	-1.6
CC1=CC(C)C2(COC(=O)NC3CCCCC3)COC3(CCCC3)C1C2C (stereo not drawn)	0.6	-0.683	.	20.0
C[C@@H]1CN([C@@H](C)CO)C(=O)c2cc(NS(=O)(=O)c3cn(C)cn3)ccc2O[C@H]1CN(C)S(=O)(=O)c1ccccc1	0.6	-0.123	-1.6	-7.8
C[C@H](CO)N1C[C@H](C)[C@H](CN(C)Cc2ccc(Cl)c(Cl)c2)Oc2c(NS(=O)(=O)c3ccc(F)cc3)cccc2C1=O	-2.8	-0.552	85.5*	27.3
C[C@@H]1CN([C@H](C)CO)C(=O)c2cccc(NS(=O)(=O)c3cn(C)cn3)c2O[C@@H]1CN(C)S(=O)(=O)c1ccc(F)cc1	1.9	0.00247	-7.8	-8.2
CCc1ccc(C(Nc2cc(C)ccn2)c2ccc3cccnc3c2O)cc1 (stereo not drawn)	-15.5	.	.	36.1
CCOC(=O)c1c(NC(=O)C(C)Oc2ccc3c(C)cc(=O)oc3c2)sc2c1CCCC2 (stereo not drawn)	-1.3	.	.	-8.2
Cc1noc(C)c1NC(=O)Nc1ccc2c(c1)C(=O)N([C@@H](C)CO)C[C@H](C)[C@H](CN(C)S(=O)(=O)c1cn(C)cn1)O2	0.4	-0.353	-29.2	10.3
Cc1ccc(S(=O)(=O)N(C)C[C@H]2Oc3ccc(NS(=O)(=O)c4ccccc4)cc3CC(=O)N([C@@H](C)CO)C[C@@H]2C)cc1	-0.7	-0.294	.	-23.6
O=C(O)C=C1C2CC3CC(C2)CC1C3	0.4	0.104	-9.2	-4.6
COc1ccc(C(=O)Nc2ccccc2)cc1S(=O)(=O)Nc1cccnc1	0.9	.	.	-14.4
O=C(CN1C(=O)c2ccccc2C1=O)Nc1ccc(NC(=O)c2ccccc2F)cc1	2.4	.	.	-15.0
